Rango dissoc inh: inhibition of RanGTP-driven Rango-importin beta dissociation. Potency, µM (doses to about 46.1 µM), for inactives: at the top dose activity change, negative = inhibition. Biochemical FRET Rango-importin beta, RanGTP-induced dissociation. O95149+P62826. 340,000 tested, 0.071% active; active means falling FRET ratio curve, often poorly fitted, with flat reads before Ran was added; inconclusive means other falling curves, or compound fluorescence or quenching; inactive means flat or rising ratio curve;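 further: potency means the concentration at half of the fitted maximal effect; % of control where 0% means no effect; nearly all actives have a fitted effect of over 45% in size; -100% = wells without RanGTP and RCC1; the record marks most hits as doubtful in a second field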
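Two FRET readings bracket the reaction: one 5 min after compound meets Rango–importin beta, another 45 min after RanGTP-RCC1 (0.6 uM Ran, 0.2 uM RCC1, 2 mM GTP) is added. Only the second defines inhibition.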
GLA inh pH 4.5: blocks human alpha-galactosidase A at pH 4.5; purified enzyme, 4-MU-alpha-Gal fluorescence, pH 4.5; P06280; activity change, negative = inhibition, % at 105 µM; 230,000 tested, under 10 active; inconclusive = small, poorly fitted or top-dose-only inhibition, or a rising curve; inactive = flat fitted curve, though single readings scatter; no compound was filed as active;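 further: 0% = full activity with enzyme and -100% = basal without enzyme; dose as in the result columns while the protocol names 77 µM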
Target sequence (P06280 whole entry, looked up): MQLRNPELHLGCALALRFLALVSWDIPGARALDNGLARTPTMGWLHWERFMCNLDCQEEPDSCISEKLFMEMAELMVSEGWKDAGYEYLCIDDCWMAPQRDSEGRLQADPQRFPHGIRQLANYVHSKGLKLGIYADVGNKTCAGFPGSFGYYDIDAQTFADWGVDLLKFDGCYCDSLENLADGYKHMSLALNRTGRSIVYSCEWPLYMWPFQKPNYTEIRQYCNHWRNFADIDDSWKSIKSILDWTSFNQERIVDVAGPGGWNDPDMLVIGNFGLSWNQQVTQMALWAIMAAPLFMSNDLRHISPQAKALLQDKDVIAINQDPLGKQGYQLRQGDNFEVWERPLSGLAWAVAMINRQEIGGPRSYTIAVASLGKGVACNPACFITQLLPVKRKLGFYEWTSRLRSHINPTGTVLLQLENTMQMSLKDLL
miR-21 reporter: raises the signal of a miR-21 reporter; HeLa miR-21 FLuc reporter, luciferase, 48 h; Potency, µM (top dose mostly 38.3 µM), for inactives: top-dose reporter change, positive = more light; 340,000 tested, under 10 active; AID 2288; active = well fitted rising curve with a large enough effect; inconclusive = small, poorly fitted or top-dose-only effect; inactive = no such curve, though single readings can be large or run the other way;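 further: % of control where 0% means no effect; miR-21 action dims this reporter so a rising signal means less miR-21 action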
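Using DMEM plus 10% FBS, HeLa miR-21-FLuc cells are incubated with test compounds (final up to about 40uM) for 48 hours; firefly luciferase signal is then imaged following reagent-mediated lysis.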
Rango-impB inh: prevents formation of the Rango-importin beta complex; Q14974; Rango CFP/YFP FRET sensor + importin beta, 45 min; Potency, µM (top dose mostly 92.2 µM), for inactives: at the top dose inhibition of complex formation; 340,000 tested, 0.031% active; AID 540263; active = rising FRET ratio curve, often small or poorly fitted; inconclusive = mostly compound fluorescence or quenching in the first reads; inactive = flat curves in all reads;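 further: potency means the concentration at half of the fitted maximal effect; 0% = DMSO wells and 100% = buffer wells lacking importin beta; nearly all actives have a fitted effect of over 15% in size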
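FRET biosensor Rango (snurportin 1 IBB between N-terminal EYFP and C-terminal Cerulean), 50 nM in PBS/1 mM DTT/0.02% Tween-20/0.1% BSA, preincubated 5 min RT with compound; 0.125 microM importin beta added, 45 min RT, CFP/YFP FRET ratio read.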
* marks the source's active call; other numbers are inactive results; ? = inconclusive; / = no result given; & = joins results of further samples; [ ] = dose if it differs, or a comment. Only part of the results is shown (hit frequency here may not be typical).

SMILES	Rango dissoc inh	GLA inh pH 4.5	miR-21 reporter	Rango-impB inh
Cc1cccc(OCc2nnc(SCC(=O)N3CCN(C(=O)c4ccco4)CC3)n2C)c1C	-3%	-1	2%	1.7%
O=C(CN1CCN(Cc2ccccc2)CC1)N1CCCc2ccccc21	1%	/	-1%	-0.2%
CCOC(=O)N1CCN(C(=O)CNC(=O)c2nn(-c3ccc(OC)c(OC)c3)c(=O)c3ccccc23)CC1	-6%	/	1%	3.8%
Cc1noc(C)c1COC(=O)c1ccc(F)c(S(=O)(=O)N2CCOCC2)c1	-3%	/	/	1.6%
CC(C)(C)NC(=O)C(c1ccco1)N(Cc1ccc2c(c1)OCO2)C(=O)Cn1nnc2ccccc21 (stereo not given)	-8%	-1	-15%	-1.1%
Nc1nc(-c2cccnc2)nc2sc3c(c12)CCCC3	?	5	-98%	0.8%
O=C(CN1C(=O)NC2(CCOc3ccccc32)C1=O)c1ccc(F)cc1 (stereo not given)	7%	/	/	-2.8%
N#Cc1ccc(COC(=O)C2CCC(=O)N2)cc1 (stereo not given)	22%	8	0%	1.6%
Cc1ccc(S(=O)(=O)N(C)c2ccc(OCC(=O)NCC3(N(C)C)CCCCC3)cc2)cc1	8%	/	/	-3.2%
COc1ccc(NC(=O)C2=C(C)Nc3ncnn3C2c2ccccc2C(F)(F)F)c(OC)c1 (stereo not given)	-16%	3	-4%	2.7%
O=C(Nc1ccon1)c1ccccc1F	11%	8	-12%	0.0%
O=S(=O)(NC1CCCC1)c1cccc(-c2nnc(-c3ccccc3)o2)c1	-1%	-15	11%	-3.8%
CCn1cnc2cc(NCc3nc4ccccc4n3Cc3ccccc3)ccc21	5%	-8	-51%	-0.4%
CCOC(=O)c1cc(C(=O)NC(C)c2ccccc2)c(=O)[nH]c1C (stereo not given)	-13%	/	-4%	-1.3%
Cc1cccc(C)c1-n1cccc1/C=C1/C(=N)N2C(=NC1=O)SN=C2S(C)(=O)=O	0%	-28[21.1 µM]	-13%	-2.4%
COc1cccc(-c2nnc(SCC(=O)NCc3ccc4c(c3)OCO4)n2Cc2ccco2)c1	4%	-1	0%	2.9%
COc1ccc(S(=O)(=O)N2CCCC(C(=O)NC3CCCC3)C2)cc1OC (stereo not given)	12%	/	6%	-0.8%
COC(=O)C1(C)NC(c2cccs2)C2C(=O)N(c3ccc(F)cc3)C(=O)C21 (stereo not given)	-16%	-2	-1%	-4.4%
Cc1ccc(SCCNC(=O)c2ccc(C)c(S(=O)(=O)Nc3ccccc3C)c2)cc1	-2%	-10	25%	-3.6%
CCOC(=O)c1cccc(OC(=O)CCNC(=O)c2ccc(Cl)cc2)c1	1%	/	/	-5.6%
CCC1c2ccc(C)n2CCN1C(=O)Nc1ccccc1OC (stereo not given)	?	6	-13%	?
CCc1nc(N2CCN(C(=O)CCl)CC2)c2c3c(sc2n1)CC(C)CC3 (stereo not given)	2%	/	?	0.4%
Cc1ccc(NC(=O)c2cc(S(=O)(=O)N3CCCCC3)c[nH]2)cc1F	6%	/	0%&-5%	3.8%
CC1(C)NC(=O)N(CC(O)COc2ccc(N3C(=O)c4ccccc4C3=O)cc2)C1=O (stereo not given)	-3%	8	-9%	-1.8%
Cc1cc(C)cc(NC(=O)[C@H](Cc2c[nH]c3ccccc23)NC(=O)[C@@H]2Cc3ccccc3CN2)c1	?	/	5%	-3.4%

(continued)
SMILES	Rango dissoc inh	GLA inh pH 4.5	miR-21 reporter	Rango-impB inh
Cc1nc(N2CCCCC2)c2c(C)c(C(=O)Nc3cccc(C(F)(F)F)c3)sc2n1	16%	-5	-6%	0.5%
COC(=O)C1=C(C)NC(C)=C(C(=O)OC)C1C(=O)OCC(=O)Nc1ccc(C(C)=O)cc1	-1%	?	-4%	2.1%
O=C(COC(=O)c1ccc[n+]([O-])c1)Nc1ccc([N+](=O)[O-])cc1Cl	-9%	/	/	-0.6%
CCn1nc(NS(=O)(=O)c2ccccc2[N+](=O)[O-])c2cc3ccc(C)cc3nc21	8%	/	-11%	0.5%
Cc1ccc(NC(=O)CSCC(=O)Nc2nnc(C)s2)cc1	-3%	/	/	1.7%
O=C(COC(=O)c1ccco1)NCc1cccs1	1%	-8	0%	-0.3%
COc1cccc(/C=N/NC(=O)CSc2ccccc2C)c1O	-22%	-4	20%	-2.2%
Cn1c(-c2ccccc2)c(/C=N/NC(=O)c2cccnc2)c2ccccc21	-5%	-29	-20%	-3.4%
O=C(Nc1ccc2c(c1)OCO2)c1ccc(Cl)s1	3%	-20	-42%	-6.3%
Cc1ccc(Cn2c(=N)n(CC(O)COc3ccccc3)c3ccccc32)cc1 (stereo not given)	0%	-7	?	2.3%
CC(C)OCCCNC(=O)C(Cc1ccccc1)NS(=O)(=O)c1ccc2c(c1)CCC(=O)N2 (stereo not given)	-1%	/	-3%	1.8%
O=C(/C=C/c1ccc(F)cc1)NCCNC(=O)/C=C/c1ccc(F)cc1	0%	11	-3%	-1.0%
O=C(Nc1ccc2oc(=O)ccc2c1)c1cc([N+](=O)[O-])ccc1N1CCOCC1	-2%	-4	-3%	-0.4%
Cc1ccc(S(=O)(=O)N2CCN(C(=O)COC(=O)/C=C/c3ccc(F)cc3)CC2)c(C)c1	7%	/	/	-3.5%
CCn1cc(C(=O)O)c(=O)c2cc(F)c(N3CCN(C(=O)Nc4ccccc4)CC3)cc21	2%	4	0%	-0.4%
CC1CCCN(CCCNC(=O)CCn2nc(-c3ccccc3)ccc2=O)C1 (stereo not given)	-5%	-3	-4%	-0.3%
COc1ccccc1C(=O)Nc1ccc(N2CCN(S(C)(=O)=O)CC2)cc1	2%	-6	-22%	0.0%
NCC(=O)Nc1ccc(Br)cc1	-16%	2	6%	0.1%
CC(=O)c1sc(NCc2ccccc2)nc1C	-1%	/	-21%	1.0%
Cc1nn(CCCC(=O)NCc2ccc(Cl)cc2)c(C)c1[N+](=O)[O-]	1%	3	-15%	-3.1%
Cc1c(NC(=O)C(C)OC(=O)/C=C/c2ccc(OC(F)F)cc2)c(=O)n(-c2ccccc2)n1C (stereo not given)	7%	/	/	3.0%
O=C(NCCN1CCOCC1)c1ccc(CS(=O)(=O)c2ccc(Cl)cc2)o1	7%	0	-3%	0.6%
CC(C)(C)C1(C)OC(=O)C(=Cc2ccc(OCC(=O)Nc3ccccc3)cc2)C(=O)O1 (stereo not given)	-12%	-8	-61%	-0.8%
Cn1c(SCC(=O)Nc2ccc3c(c2)n(C)c(=O)n3C)nnc1-c1ccncc1	-9%	/	5%	-1.5%
CCC1=NN2C(=N)/C(=C\c3ccc(OCCOc4ccc(NC(C)=O)cc4)c(OC)c3)C(=O)N=C2S1	-3%	/	-6%	?

Next part:
SMILES	Rango dissoc inh	GLA inh pH 4.5	miR-21 reporter	Rango-impB inh
Cc1cc(C(=O)COC(=O)c2ccc(F)cc2F)c(C)n1C1CC1	14%	/	/	-11%
O=C(N/N=C/c1ccccn1)c1cc(-c2ccccc2Cl)n[nH]1	-8%	5	-25%	-0.2%
CCOc1ccc(NC(=O)C2CCCCN2S(=O)(=O)c2ccccc2)cc1 (stereo not given)	0%	-9	5%	0.9%
COc1cc(C(=O)c2ccc3c(c2)OCO3)cc(OC)c1OC	-5%	/	/	3.1%
COc1cc2c(cc1NC(=O)Cn1cnc3c1c(=O)n(C)c(=O)n3C)oc1ccccc12	/	3	-6%	/
CC(C)c1ccc(N(C)C(=O)Cc2c(C(=O)O)n(C)c3ccccc23)cc1	7%	/	-5%	-1.6%
CCN(CC)S(=O)(=O)c1ccc(N2CCN(CCO)CC2)nc1	-1%	1	-10%	-5.8%
CCS(=O)(=O)N1CCC(C(=O)NCc2ccccc2OC)CC1	14%	-8	-3%	-2.2%
Nc1nc(-c2cccnc2)nn1C(=O)Cc1ccccc1	1%	-14	-2%	-4.4%
CC(=O)Cc1nsc(Nc2ccc3c(c2)OCCO3)n1	-17%	-4	-39%	?
Fc1ccccc1-c1nc(-c2ccccc2)no1	8%	-12	-67%	3.7%
Cc1cc2c(ncn2C)c(NS(=O)(=O)c2cc(Cl)ccc2Cl)c1C	5%	-1	-1%	-0.3%
COc1cccc(C(=O)Nc2nc3c(s2)CN(C)CC3)c1	?	2	-38%	?
O=c1oc(-c2ccc(Br)cc2)nc2ccccc12	0%	/	-47%	2.2%
COc1cc(NC(=O)c2cccs2)c(C(=O)OCC(=O)NCc2ccco2)cc1OC	-3%	-5	-4%	-2.3%
CCOC(=O)C1CCN(CC(=O)Nc2ccc(OC)c(S(=O)(=O)N3CCCCC3)c2)CC1	-6%	/	/	-0.3%
Cc1ccc(CNC(=O)CSc2nc3ccsc3c(=O)n2NC(=O)c2ccccc2)cc1	16%	2	-32%	-1.2%
NC(=O)Nn1c(CCC(=O)O)ccc1-c1ccc(F)cc1	6%	-6	-3%	-1.4%
CCSc1nc2ccc(OC)cc2cc1C#N	6%	0	-20%	2.1%
Cc1cccc(C)c1C(=NCCCN(C)C)c1ccccc1	-7%	-2	-3%	0.1%
CCN(CC)C(=O)c1[nH]cnc1C(=O)NCC(=O)OCc1ccccc1	-10%	/	3%	-2.1%
CN1CCN(c2cc3c(c4c2[nH]c2ccccc24)C(=O)CC(C)(C)C3)CC1	-28%	-8	?	?
CCCc1cc(=O)oc2c(C)c(OC3CCCCC3=O)ccc12 (stereo not given)	5%	/	0%	-0.4%
Cc1ccc2nc(-c3ccncc3)c(Nc3ccccc3)n2c1	-5%	-2	-18%	-3.6%
CN1C(C(=O)NCc2ccccc2)CC2Cn3c(nc4cc(Cl)c(Cl)cc43)C21 (stereo not given)	-5%	-2	5%	-0.4%

Whole records, looked up by structure.
Entry for CCOC(=O)c1cccc(OC(=O)CCNC(=O)c2ccc(Cl)cc2)c1 → Rango dissoc inh = 1%; GLA inh pH 4.5 = /; miR-21 reporter = /; Rango-impB inh = -5.6%
Entry for Cc1noc(C)c1COC(=O)c1ccc(F)c(S(=O)(=O)N2CCOCC2)c1 → Rango dissoc inh = -3%; GLA inh pH 4.5 = /; miR-21 reporter = /; Rango-impB inh = 1.6%
Entry for Cc1ccc(CNC(=O)CSc2nc3ccsc3c(=O)n2NC(=O)c2ccccc2)cc1 → Rango dissoc inh = 16%; GLA inh pH 4.5 = 2; miR-21 reporter = -32%; Rango-impB inh = -1.2%

Later entries
SMILES	Rango dissoc inh	GLA inh pH 4.5	miR-21 reporter	Rango-impB inh
CCCCc1ccc(NC(=O)C(=O)NCCN2CCN(Cc3ccc([N+](=O)[O-])cc3)CC2)cc1	15%	8	9%	-0.2%
O=C1OCCC1Sc1nnc(-c2ccccc2Br)n1Cc1ccccc1 (stereo not given)	2%	-6	-10%	0.5%
CC(=O)/C(N=Nc1cc(C)ccc1O)=C(\C)O	-10%	7	-4%	?
CSc1ccc(CNCC(O)c2ccccc2)cc1 (stereo not given)	8%	2	-20%	-0.9%
O=C(OCc1nnc(-c2ccccc2)o1)C1CC(=O)N(Cc2ccco2)C1 (stereo not given)	-19%	7	-10%	-3.7%
c1ccc(-c2cc(N3CCCCC3)ncn2)cc1	18%	-1	-51%	0.2%
CCOc1ccc(CNS(=O)(=O)c2cc(-c3cc(C)no3)ccc2OC)cc1OC	-7%	/	0%	0.4%
Cc1ccc(N2CC(C(=O)Nc3c4c(nn3C(C)(C)C)CS(=O)(=O)C4)CC2=O)cc1 (stereo not given)	-14%	/	1%	2.7%
COCCn1cnnc1SCC(=O)Nc1ccc(Br)cc1F	6%	5	0%	-0.2%
CCCCNc1ccc(C(=O)Nc2cccc(C)n2)cc1[N+](=O)[O-]	14%	-4	-16%	3.7%
c1ccc(-n2ncc3c(N4CCN(CCOc5cccc6ccccc56)CC4)ncnc32)cc1	10%	-8	3%	-5.6%
Cc1cc(C)n2nc3nc4c(cc3c2n1)CCCC4	?	7	-32%	?
Cc1ccc(NC(=O)CN(C)S(=O)(=O)c2cccc3nsnc23)cc1Cl	5%	-3	4%	-2.1%
COc1ccccc1C(=O)NCCC(=O)N(C)CC(=O)Nc1ccccc1Br	22%	/	/	-0.1%
CS(=O)(=O)N1CCN(c2ccc([N+](=O)[O-])c(NCc3ccccc3)c2)CC1	-7%	-10	-30%	?
O=C(NCCCN1CCOCC1)c1ccc2c(c1)N(Cc1cccc(Cl)c1)C(=O)c1ccccc1S2=O (stereo not given)	2%	/	-5%	?
Cc1cc2nc(CS)[nH]c2cc1C	?	2	-14%	?

Assay outcomes: PubChem BioAssay, National Center for Advancing Translational Sciences (NCATS)
